hNpr1 antagonist: Natriuretic polypeptide receptor (hNpr1) antagonism - Primary qHTS; actives 1.6% (n = 76,000); Potency, µM (series often up to 46.3 µM), inactives show at the top dose activity change, negative = inhibition, actives largely listed as inhibitors; HEK293 hNpr1 GloSensor cGMP, ANP-stimulated luminescence; Atrial natriuretic peptide receptor 1 (Homo sapiens), P16066; AID 1347048, 2019; active = well fitted inhibition curve with a large enough effect; inconclusive = small, poorly fitted or top-dose-only effect; inactive = no such curve, though single readings can be large or run the other way;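 note: nearly all actives have a fitted effect of over 60% in size; nearly all hits also lower the signal before the agonist is added; a reference antagonist and vehicle were the controls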
Target sequence (P16066 whole entry, looked up): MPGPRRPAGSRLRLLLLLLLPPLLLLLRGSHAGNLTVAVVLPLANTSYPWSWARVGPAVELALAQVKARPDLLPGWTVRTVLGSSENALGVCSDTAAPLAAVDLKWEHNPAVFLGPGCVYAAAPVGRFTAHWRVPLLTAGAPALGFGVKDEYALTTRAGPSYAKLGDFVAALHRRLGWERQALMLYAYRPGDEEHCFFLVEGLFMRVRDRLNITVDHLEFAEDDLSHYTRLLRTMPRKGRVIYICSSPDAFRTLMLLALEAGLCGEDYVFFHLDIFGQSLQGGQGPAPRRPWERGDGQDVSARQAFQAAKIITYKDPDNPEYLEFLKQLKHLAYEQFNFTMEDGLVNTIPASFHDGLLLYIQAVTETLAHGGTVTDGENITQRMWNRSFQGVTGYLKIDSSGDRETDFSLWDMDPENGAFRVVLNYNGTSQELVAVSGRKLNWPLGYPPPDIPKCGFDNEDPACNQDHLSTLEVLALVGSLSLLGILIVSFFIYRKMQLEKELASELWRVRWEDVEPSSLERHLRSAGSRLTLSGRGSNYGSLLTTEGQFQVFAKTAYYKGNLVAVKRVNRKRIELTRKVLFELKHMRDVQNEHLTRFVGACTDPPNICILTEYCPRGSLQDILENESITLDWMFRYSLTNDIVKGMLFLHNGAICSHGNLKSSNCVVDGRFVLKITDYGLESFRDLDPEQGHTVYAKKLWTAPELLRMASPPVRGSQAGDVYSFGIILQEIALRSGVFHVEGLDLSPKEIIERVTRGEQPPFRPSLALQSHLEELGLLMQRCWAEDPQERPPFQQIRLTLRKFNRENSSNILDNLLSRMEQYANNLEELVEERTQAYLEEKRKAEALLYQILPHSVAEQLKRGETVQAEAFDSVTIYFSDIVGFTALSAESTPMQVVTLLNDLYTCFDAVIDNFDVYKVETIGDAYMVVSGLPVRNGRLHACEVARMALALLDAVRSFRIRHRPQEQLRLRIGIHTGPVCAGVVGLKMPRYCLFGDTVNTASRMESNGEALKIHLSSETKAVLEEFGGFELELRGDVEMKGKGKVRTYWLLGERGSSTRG
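Compound pre-incubated 30 min at room temperature on GloSensor-loaded HEK293 cells stably carrying hNpr1 and the pGS-40F cGMP biosensor. Stimulation uses hNppA at 0.1 nM final; luminescence is taken at baseline and 20 min post-agonist.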
* hit, by the source's call; ? = inconclusive; [ ] = dose if it differs, or a comment. % is set by controls: 0 for no effect and ±100 for the full control effect; potency is the fitted concentration of half-maximal effect. Not all compounds are listed; count on the stated rates, not on these rows.

hNpr1 antagonist	Compound
1%	O=[S+]([O-])(NC1CCN(c2nc3ncccc3o2)CC1)c1cccc(C(F)(F)F)c1
-13%	O=C(N[C@@H]1CCOC[C@H]1OCCO)c1ccc2c(c1)ncn2CCO
-1%	Cn1ncc(N2CCCC(CC(=O)Nc3ccc(F)cc3F)C2)cc1=O (configuration not stated)
1%	Cc1nc(C)c(C(=O)N2CCC(N3C[C@H](O)C[C@H]3C(=O)NC3CCCCC3)CC2)s1
1%[70.6 µM]	COc1ccc(CN2C[C@H](O)C[C@H]2c2nc(-c3ccc(F)cc3)no2)c(OC)c1OC
0%	Cc1nnc2n1CCC(N(C)S(=O)(=O)c1cn(C)cn1)CC2 (configuration not stated)
1%	Cc1cnc(C(=O)N2CCC(C(=O)N3CCCCCCNC(=O)CC3)CC2)cn1
-7%	O=C(Nc1ccc2ncnc(N3CCCCC3)c2c1)c1c(F)cccc1Cl
-23%[70.6 µM]	O=C(Cc1c[nH]c2ncc(-c3ccccc3)cc12)Nc1ccc(N2CCOCC2)cc1
-1%	CCC(=O)N1CCC(CC)(N2CCN(S(=O)(=O)c3ccccc3C(F)(F)F)CC2)C1 (configuration not stated)
0%	c1ccc(Cn2cnnc2CC2CCCNC2)cc1 (configuration not stated)
-12%	Cc1ncccc1C(=O)N1CCCn2ccnc2C1c1ccccc1 (configuration not stated)

Next part.
hNpr1 antagonist	Compound
14%	CC(C(=O)NCc1ccc(F)cc1F)C1CCOCC1 (configuration not stated)
-2%[70.6 µM]	CCCNC(=O)[C@@H]1Cc2cn(Cc3c(C)noc3C)c3cccc(c23)[C@H](CC(C)C)N1
7%	CS(=O)(=O)N(C1CC1)C1CCOC2(CCN(C(=O)NCc3ccccc3)CC2)C1 (configuration not stated)
4%	CC(C)S(=O)(=O)N1CC(N(C)Cc2cccnc2)C1
0%	COc1ccc(NC(=O)N2CCC3(CC2)N(CC2CC2)C(=O)CS3=O)cc1 (configuration not stated)
3%	O=C(NC1CCN(c2cc(-c3ccccc3)[nH]n2)C1)c1ccc(Br)cc1 (configuration not stated)
-4%	O=C(NCc1ccccc1)[C@@H]1COCC(=O)N1Cc1ccc(F)cc1
3%[70.6 µM]	Cn1ccnc1CN1C[C@H]2CN(C(=O)C3CC3)CCN2C1=O
7%	CCN(Cc1nccn1C)C(=O)c1cc(-c2cnc(C)nc2)nc2ccc(F)cc12
24%	C[C@H]1[C@@H]2[C@@H](O)C([C@H](C)C(=O)N(C)CCC#N)CC[C@@]2(C)CC[C@@H]1NC(=O)c1cncnc1 (some centres not stated)
2%	C=CCC(=O)N1CCCC(N2CCN(c3cccc(C(F)(F)F)c3)CC2)C1 (configuration not stated)
2%[70.6 µM]	COc1cccc(CN2CCOC3CCN(C(=O)c4cccnc4)CC3C2=O)c1 (configuration not stated)

(listing goes on)
hNpr1 antagonist	Compound
8%	CCN(CCOC)Cc1cn(C)nc1-c1ccc(C2CCCCC2)cc1
1%	COCCNC(=O)[C@H]1C[C@H](Oc2ccccc2)CN1S(=O)(=O)c1ccc(OC)cc1
-1%	Cc1ccc(NC(=O)Nc2ccccc2)c(=O)n1CC(=O)N1CCN(c2ccccc2)CC1
4%[70.6 µM]	CN(C)Cc1ccc2c(c1)c(OC(C)(C)C(=O)NC1CC1)nn2Cc1ccccc1
-28%	CCOC(=O)C1=CN(CC(=O)Nc2cccc(Cl)c2C)S(=O)(=O)N=C1C
11%	Cc1ncc2n1C(=O)N(C1CCN(C(=O)c3ccc(F)cc3)CC1)C2
0%	O=C(C[C@@H]1CCNC[C@@H]1Cc1cc(-c2ccc(F)cc2)on1)NCc1ccc2c(c1)OCO2
-15%	O=C(CC1CCCCC1)N1CCN(c2cc(-c3ccccc3)[nH]n2)CC1
2%	CCC1(CO)CCCN(Cc2[nH]cc(C)c(=O)c2C)C1 (configuration not stated)
0%	COc1ccc(NC(=O)N2C[C@@H]3C[C@H](C2)c2c(NC(=O)c4cncnc4)ccc(=O)n2C3)cc1
9%	CN(C)C[C@@H]1CN(Cc2ccncc2)C[C@H]1NC(=O)c1cccc(C#N)c1
23%	Cc1noc(C)c1[S+](=O)([O-])N1CCC2(C1)C(=NC1CCCC1)NC(=O)N2c1cccnc1 (configuration not stated)

Remaining list, next part:
hNpr1 antagonist	Compound
7%	CCN(CC)CCNC(=O)C1N(C(C)C)C(=O)C12CCCC2 (configuration not stated)
-14%	COc1ccc(C2Cn3cnc(C(=O)N4CCC(C(=O)Nc5ccc(C)cc5C)CC4)c3CO2)cc1 (configuration not stated)
8%	CC[C@H]1CN(C(=O)Nc2cccc(C(F)(F)F)c2)CC[C@H]1CC(=O)NCCN1CCCCC1
0%	COc1ccc(C(=O)N2CCC(c3n[nH]c(=O)n3-c3ccc(C)cc3)CC2)cc1OC
-6%	CN(C)[C@H]1CCN(Cc2cccc(C(=O)O)c2)C[C@H]1CCC(=O)O
-8%[70.6 µM]	Cc1cccc(CN2CCC3(CC2)COCCN3C(=O)OCc2ccccc2)c1
-6%	CCc1nc(N2CCOCC2)ncc1C(=O)O
3%	CCCN(CC1CCOC1)S(=O)(=O)c1ccc(F)cc1 (configuration not stated)
1%	CCn1ncc(N2CCCC(CC(=O)Nc3ccccc3OC)C2)cc1=O (configuration not stated)
-1%[70.6 µM]	c1ncc(CN2CCn3c(nnc3C3CCCNC3)C2)s1 (configuration not stated)
-4%	CCC(C)NC(=O)C(NC(=O)c1cccs1)C1CCN(S(=O)(=O)c2ccc(OC)cc2)CC1 (configuration not stated)
5%	Cn1c(=O)oc2cc(NC(=O)CCc3cc4n(n3)CCCNC4)ccc21

Rewritten as labelled records: part of the list above.
> c1ncc(CN2CCn3c(nnc3C3CCCNC3)C2)s1 (configuration not stated)
  hNpr1 antagonist: -1%[70.6 µM]

> CCC(C)NC(=O)C(NC(=O)c1cccs1)C1CCN(S(=O)(=O)c2ccc(OC)cc2)CC1 (configuration not stated)
  hNpr1 antagonist: -4%

Later entries
hNpr1 antagonist	Compound
-6%	COC(=O)C1=CN(CC(=O)Nc2cccc(OC)c2)S(=O)(=O)N=C1C
-18%[70.6 µM]	CC(C)N1CCOC[C@H]1c1ncc(-c2ccc(OC(F)(F)F)cc2)[nH]1
-24%	O=C1[C@@H]2C[C@@H](CN2Cc2ccc3ccccc3n2)Oc2ccccc2N1Cc1ccccc1
6%	Cc1ccc(C)c(OCC(=O)c2ccc3c(c2)N(C(C)C(=O)NCC2CCCO2)C(=O)CO3)c1 (configuration not stated)
-15%	O=C(c1nc2sccn2c1Br)N1CCN(c2ncccn2)CC1
-26%[70.6 µM]	O=C(Cc1ccc(O)cc1)N1CC(CNc2ccccc2)C2(C1)CN(c1ccccc1)C2 (configuration not stated)
-14%	O=C(c1cc2ccccc2oc1=O)N1CCC2(CCCN(Cc3ccccc3F)C2)C1 (configuration not stated)
-1%	O=C(NC1CCCCC1)C1c2ccccc2C(=O)N(Cc2ccccc2)C12CCCC2 (configuration not stated)
-30%	O=C(CCCc1ccccc1)NC1CCN(c2cc(-c3ccccc3)[nH]n2)CC1
-1%[70.6 µM]	CN1C(=O)[C@@H]2C[C@@H](CN2C(=O)c2ccccc2)Oc2ccccc21
-2%[70.6 µM]	NC(=O)CCNC(=O)C1=C[C@@H](NC(=O)c2cccs2)[C@@H](O)[C@H](O)C1
-19%	CC(C)(C)c1ccc(NC(=O)O[C@@H]2CO[C@H]3[C@@H]2OC[C@@H]3Nc2nccc(-c3ccc4c(c3)OCO4)n2)cc1

Three records drawn at random from the list so far, as already listed:
hNpr1 antagonist	Compound
-24%	O=C1[C@@H]2C[C@@H](CN2Cc2ccc3ccccc3n2)Oc2ccccc2N1Cc1ccccc1
-1%[70.6 µM]	CN1C(=O)[C@@H]2C[C@@H](CN2C(=O)c2ccccc2)Oc2ccccc21
-30%	O=C(CCCc1ccccc1)NC1CCN(c2cc(-c3ccccc3)[nH]n2)CC1

Later entries
hNpr1 antagonist	Compound
-4%[70.6 µM]	CNC(=O)c1cc(-c2cccc(OC)c2OC)cc2c1OCCN2Cc1cccnc1
-15%	Cc1noc(-c2cccc(OC3CN(C(=O)Nc4ccccc4)C3)c2)n1
4%	Cc1ccc(C(C)NC(=O)c2cc(COc3ccccc3)[nH]n2)c(C)c1 (configuration not stated)
-1%	Cc1nn(-c2cccc(Br)c2)c(C)c1[C@@H]1C=C[C@@H](NC(=O)c2cccs2)C1
0%	c1cc(-c2ccc3c(c2)OCCCO3)n2nc(C3CCC3)nc2n1
1%	CC(=O)Nc1ccc(C2(C(=O)NCc3ccc(F)cc3Cl)CCC2)cc1
6%	COCC(=O)NCc1nc(-c2cccc(F)c2)c(-c2ccccn2)[nH]1
-10%	COc1ccc(Cl)cc1CN(C)C(=O)c1ccc(C2CCCNC2)cc1 (configuration not stated)
?	O=C(NCc1ccccn1)c1cccc(OC2CCN(c3cnccn3)CC2)c1
-23%[70.6 µM]	COc1ccc(-c2cn3c(n2)CO[C@@H](CNCc2ccc(F)c(F)c2)C3)cc1
2%	N#Cc1ccccc1S(=O)(=O)N[C@H]1CO[C@H]2[C@@H]1OC[C@@H]2n1nnnc1-c1ccc2c(c1)OCO2
-7%	O=C(c1ccccc1F)N1CCC(Cc2nc(-c3cnccn3)no2)CC1

(further entries)
hNpr1 antagonist	Compound
0%	COc1ccc(NC(=O)N2CCC(N3CC4CC(C3)[C@H]3CCCC(=O)N3C4)CC2)cc1 (some centres not stated)
-18%	Cc1ccc(OCc2nc(C3CCN(C(=O)c4noc(C)c4CN4CCCCC4)CC3)no2)cc1
-3%	COc1ccc(-c2ccnc3nc(-c4ccccc4OC)nn23)c(F)c1
13%	Cc1ccc(OCc2nc(C3CCNC3)no2)cc1 (configuration not stated)
3%	Cc1ccccc1OCC(=O)N1C[C@@H]2CCN(C)C[C@]2(C(=O)O)C1
-2%	O=C(c1ccccc1)N1CCC(OCC2CC2)C1 (configuration not stated)
4%[70.6 µM]	CN1C[C@@H](NC(=O)NCc2ccccc2)C[C@H]1c1nc(-c2cccnc2)no1
1%	Cc1cnc(C2CCC2)n1CC1CCN(C(=O)NC2CCCCC2)CC1
4%	CN1CCC([C@@H]2CN(S(=O)(=O)c3cccc(C#N)c3)C[C@H]2C(N)=O)CC1
-2%	COCC(=O)NC1CCN(C(=O)N2CC3CC(C2)[C@H]2CCCC(=O)N2C3)CC1 (some centres not stated)
3%[70.6 µM]	COC(=O)[C@@H]1Cc2nc[nH]c2CN1Cc1ccc(NC(C)=O)cc1
2%[70.6 µM]	O=C(Cc1ccccc1)Nc1ccc([C@@H](O)[C@H]2COCC(=O)N2Cc2ccccc2)cc1

Entries listed so far with a cyano group (4):
hNpr1 antagonist	Compound
24%	C[C@H]1[C@@H]2[C@@H](O)C([C@H](C)C(=O)N(C)CCC#N)CC[C@@]2(C)CC[C@@H]1NC(=O)c1cncnc1 (some centres not stated)
9%	CN(C)C[C@@H]1CN(Cc2ccncc2)C[C@H]1NC(=O)c1cccc(C#N)c1
2%	N#Cc1ccccc1S(=O)(=O)N[C@H]1CO[C@H]2[C@@H]1OC[C@@H]2n1nnnc1-c1ccc2c(c1)OCO2
4%	CN1CCC([C@@H]2CN(S(=O)(=O)c3cccc(C#N)c3)C[C@H]2C(N)=O)CC1

(continued)
hNpr1 antagonist	Compound
8%	COc1ccc(CN2C[C@H]3CN(C4CCOCC4)C[C@@]3(C(=O)O)C2)cc1O
2%	COCCn1c(C)cnc1CC1CCN(C(=O)C2CC2)CC1
1%	CCc1nnc([C@@H]2CC(F)(F)CN2C(=O)c2coc(C)n2)o1
-1%[70.6 µM]	CC1=C[C@@H](CNC(=O)CCCC(=O)O)[C@H](C(C)C)C[C@H]1Cc1nc2ccccc2[nH]1
8%	O=C(Nc1ccc(N2CCC(NCC(c3ccncc3)N3CCOCC3)CC2)cc1)C1CCCC1 (configuration not stated)
0%	Cc1ccc(CN2CCC3(CCCO3)CCC2=O)c2ccccc12 (configuration not stated)
1%	Cc1ccccc1S(=O)(=O)N1CCC(c2noc(-c3ccccn3)n2)C1 (configuration not stated)
35µM*	COc1ccc(OCC2(C)COc3ccc(C(=O)Nc4ccc(OC)nc4)cc3N2)cc1 (configuration not stated)
-12%	Cc1oc2ccn(Cc3ccccc3F)c(=O)c2c1C(=O)NCc1cccc(Cl)c1
14%	Cc1ccc(CNC(=O)C2CCN(c3cn[nH]c(=O)c3)C2)cc1 (configuration not stated)
0%	O=C(CCc1c[nH]c2ccccc12)N1C[C@@H](CO)[C@H](c2ccccn2)C1
3%	O=C(c1ccc2c(c1)OCO2)N1CCC2(CC1)N(c1ccccc1)C(=O)CS2(=O)=O

Next part:
hNpr1 antagonist	Compound
-2%	Cc1nc(CCNS(=O)(=O)c2cccs2)no1
1%[70.6 µM]	Cc1ccc(S(=O)(=O)NC[C@H]2OC[C@@H](NCc3cccc(C#N)c3)[C@@H]2O)cc1
3%	Cc1nnc2n1CCC(NC(=O)c1ccsc1)CC2 (configuration not stated)
-2%	CCN(C)C(=O)CN1C[C@@H]2C[C@H]1C(=O)N2c1cc(-c2ccccc2)ccc1OC
-2%	Cc1noc(-c2ccc(OC3CN(C(=O)C4CCOC4)C3)cc2)n1 (configuration not stated)
6%	COc1ccc(OCC(=O)N2CCCC(CNC(=O)c3ccc(F)cc3)C2)cc1 (configuration not stated)
4%[70.6 µM]	O[C@@H]1CCN(Cc2nc(C3(O)CCN(Cc4ccccc4F)CC3)cs2)C1
6%	COc1cccc(NC(=O)CCC2CCN(S(=O)(=O)c3c(C)noc3C)CC2)c1
3%	COc1ccc(C(=O)N2CC3CC(C2)[C@H]2CCCC(=O)N2C3)cc1 (some centres not stated)
2%	Cc1ccc(-n2cccc2CC(=O)NC2CCCC2)cc1
